VACV Venus inh: vaccinia inhibition (Venus reporter) | Vaccinia virus Venus reporter expression, fluorescence | Potency, µM (top dose mostly 36.5 µM), inactives show at the top dose activity change, negative = inhibition, hits mostly inhibitors | hit rate 0.46% among 330,000 | AID 720580; active means well fitted inhibition curve with a large enough effect; inconclusive means small, poorly fitted or top-dose-only effect; inactive means no such curve, though single readings can be large or run the other way; tested in A549 cells; note: nearly all actives have a fitted effect of over 30% in size; inactives centre near -10
VACV mCherry inh: inhibitors of vaccinia virus infection (mCherry reporter signal) | Vaccinia virus mCherry reporter infection, fluorescence; about a quarter of the inactives have no number | Potency, µM (highest dose often 36.5 µM), for inactives: top-dose activity change, negative = inhibition, actives largely listed as inhibitors | hit rate 0.63% among 310,000; active = well fitted inhibition curve with a large enough effect; inconclusive = small, poorly fitted or top-dose-only effect; inactive = no such curve, though single readings can be large or run the other way; tested in A549 cells; note: nearly all actives have a fitted effect of over 35% in size; inactives centre near -10
* marks the source's active call; other numbers are inactive results; & = joins results of further samples. % is set by controls: 0 for no effect and ±100 for the full control effect; potency is the fitted concentration of half-maximal effect.

What do the screens show for `CC1(C)Cc2c(cnn2-c2ccccc2)C(=O)/C1=N\NC(=O)c1ccccc1`?
VACV Venus inh: -13%; VACV mCherry inh: inactive

How did CCOC(=O)c1ccc(NC(=O)c2c(NCc3sccc3C)sc3c2CCC(C)C3)cc1 (stereo not drawn) do in these assays?
VACV Venus inh: -1%; VACV mCherry inh: -16%

How did O=C(NCC(=O)N(c1ccccc1)C(C(=O)NC1CCCC1)c1cccnc1)c1ccco1 (stereo not drawn) do in these assays?
VACV Venus inh: -13%; VACV mCherry inh: inactive

What do the screens show for `CC(C)Nc1nc2nonc2nc1Nc1ccccc1`?
VACV Venus inh: -20%; VACV mCherry inh: -26%

Results for COc1ccc(/C=N\NC(=O)/C(=C\Nc2nccc(C)n2)NC(=O)c2ccccc2)cc1 ?
VACV Venus inh: -8%

What do the screens show for `CO/N=C/C1C(=O)NN=C1c1ccccc1` (stereo not drawn)?
VACV Venus inh: 6%; VACV mCherry inh: inactive

Results for COc1ccc(/C=N\NC(=O)COc2ccc(C(C)(C)C)cc2)cc1Cn1nc(C)cc1C ?
VACV Venus inh: inconclusive

What do the screens show for `Cc1onc(-c2ccccc2Cl)c1C(=O)N1CCN=C1SCc1cccnc1`?
VACV Venus inh: -7%; VACV mCherry inh: -13%

Results for COc1ccc(S(=O)(=O)Nc2cccc3c2O[C@H](CN(C)C(=O)Nc2ccc(C(F)(F)F)cc2)[C@@H](C)CN([C@H](C)CO)C3=O)cc1 ?
VACV Venus inh: -28%; VACV mCherry inh: -6%

What do the screens show for `COc1ccc(Cl)cc1NC(=S)N1CCN(c2ncccn2)CC1`?
VACV Venus inh: -3%; VACV mCherry inh: 0%

What do the screens show for `COc1ccc(-c2ocnc2C(=O)Nc2ccccc2N2CCCCC2)cc1`?
VACV Venus inh: -4%; VACV mCherry inh: -8%

Results for Cc1ccc(/C=N/N2C(=O)C3C(C2=O)C2C=CC3C23CC3)o1 (stereo not drawn) ?
VACV Venus inh: -3%; VACV mCherry inh: inactive

Results for COc1nc(-c2ccc(C)cc2)ccc1-c1noc(-c2ccccc2Br)n1 ?
VACV Venus inh: -16%; VACV mCherry inh: -15%

How did CCOc1ccc(S(=O)(=O)Nc2cc(S(=O)(=O)N(CC)CC)ccc2N2CCCC2)cc1 do in these assays?
VACV Venus inh: -18%; VACV mCherry inh: -5%

Results for COC(=O)c1[nH]c(=O)c2ccccc2c1O ?
VACV Venus inh: -13%; VACV mCherry inh: -13%

What do the screens show for `COc1ccc(-c2noc(CSc3nc(N)cc(=O)[nH]3)n2)cc1OC`?
VACV Venus inh: -12%; VACV mCherry inh: inactive

Results for O=C(c1ccc(CS(=O)(=O)c2ccccc2)o1)N1CCOCC1 ?
VACV Venus inh: 1%; VACV mCherry inh: 7%

How did CN(C)CCN(C(=O)C1=COCCO1)c1nc2ccc(F)cc2s1 do in these assays?
VACV Venus inh: -10%; VACV mCherry inh: -25%

Results for COc1ccc(C(=O)NCCNC(=O)c2ccccn2)cc1 ?
VACV Venus inh: -5%; VACV mCherry inh: -7%

How did CCOc1ccc(NC(=O)Cc2nnc(SCC(=O)N3CCOCC3)n2C)cc1 do in these assays?
VACV Venus inh: -18%; VACV mCherry inh: -16%

How did COc1cc(/C=C2/SC(=S)N(Cc3ccccc3)C2=O)cc(Cl)c1O do in these assays?
VACV mCherry inh: inactive

Results for COc1ccc(/C=C/C(=O)C2CC2)cc1COc1cccc(C)c1C ?
VACV Venus inh: -18%; VACV mCherry inh: -15%

Results for COc1ccc(-c2ccc3[nH]c4c(c3c2)CCN2C(=O)[C@@H]([C@H](C)O)[C@@H](N(C)C(=O)Nc3ccc(F)cc3)C[C@@H]42)cc1 ?
VACV Venus inh: inconclusive; VACV mCherry inh: inconclusive

Results for CCN(CC)P(=O)(C(NC(=O)OC)C(F)(F)C(F)(F)C(F)(F)C(F)F)N(CC)CC (stereo not drawn) ?
VACV Venus inh: -13%; VACV mCherry inh: -13%

What do the screens show for `CN(C)c1ccc(C=C2C=C(c3ccccc3)OC2=O)cc1`?
VACV Venus inh: -30%; VACV mCherry inh: -8%

What do the screens show for `CCOc1ccc(-n2nc3ccc(NC(=O)CC)cc3n2)cc1`?
VACV Venus inh: -6%; VACV mCherry inh: -16%

Results for Nc1nc(F)cc(N2CCCCCC2)n1 ?
VACV Venus inh: -14%; VACV mCherry inh: -13%

How did CC(C)(C)c1cc(C(=O)N/N=C/c2ccc([N+](=O)[O-])s2)n[nH]1 do in these assays?
VACV Venus inh: inconclusive; VACV mCherry inh: 11µM*

Results for CCn1cc(C(=O)NCCc2ccc(OC)c(OC)c2)c(=O)c2cc(S(=O)(=O)N3CCC(C)CC3)ccc21 ?
VACV Venus inh: -18%; VACV mCherry inh: -34%

What do the screens show for `O=C(NCc1ccc(F)cc1)C1CCCN(S(=O)(=O)c2ccc(-n3cnnn3)cc2)C1` (stereo not drawn)?
VACV Venus inh: -9%; VACV mCherry inh: inactive

What do the screens show for `O=C(CNC(=O)c1ccccc1Br)N/N=C/c1ccccc1O`?
VACV Venus inh: inconclusive; VACV mCherry inh: inconclusive

How did O=C(Nc1c2c(nn1-c1ccc(Cl)cc1)CS(=O)(=O)C2)c1ccccc1F do in these assays?
VACV Venus inh: -2%; VACV mCherry inh: 1%

Results for O=C(CSc1ccccc1)Nc1nnc(/C=C/c2ccccc2)s1 ?
VACV Venus inh: -23%; VACV mCherry inh: 0%

What do the screens show for `O=C1CC(c2ccccc2)NN1` (stereo not drawn)?
VACV Venus inh: -1%; VACV mCherry inh: inconclusive

What do the screens show for `CCOc1cccc(C2C(C(=O)c3ccco3)=C(O)C(=O)N2Cc2ccncc2)c1` (stereo not drawn)?
VACV Venus inh: -16%; VACV mCherry inh: -20%

Results for CCN(CC(=O)NC(=O)NCc1ccco1)Cc1nc2ccccc2c(=O)[nH]1 ?
VACV Venus inh: -13%; VACV mCherry inh: -18%

Results for COc1ccccc1CNC(=O)C1CCCN(S(=O)(=O)c2ccc3c(c2)CCCN3C(C)=O)C1 (stereo not drawn) ?
VACV Venus inh: -20%; VACV mCherry inh: -9%

How did O=C1[C@@H]2Cc3c([nH]c4ccccc34)C(c3ccccc3)N2C(=O)CN1C1CCN(Cc2ccccc2)CC1 (stereo partly drawn) do in these assays?
VACV Venus inh: inconclusive; VACV mCherry inh: inconclusive

Results for CCN(CC)CCOC(=O)c1ccc2c(c1)OCCO2 ?
VACV Venus inh: -18%; VACV mCherry inh: inactive

What do the screens show for `Cc1nn(CC(=O)Nc2cccc(S(N)(=O)=O)c2)c(C)c1[N+](=O)[O-]`?
VACV Venus inh: -13%; VACV mCherry inh: -11%

For reference, some entries already given.
How did COc1cc(/C=C2/SC(=S)N(Cc3ccccc3)C2=O)cc(Cl)c1O do in these assays?
VACV mCherry inh: inactive

Results for COc1ccc(/C=C/C(=O)C2CC2)cc1COc1cccc(C)c1C ?
VACV Venus inh: -18%; VACV mCherry inh: -15%

Remaining list, next part.
Results for O=C(Nc1ccccc1F)c1nc(SCc2ccccc2F)ncc1Cl ?
VACV Venus inh: -9%; VACV mCherry inh: -1%

What do the screens show for `O=C(Cc1ccc(S(=O)(=O)N2CCCC2)s1)N1CCOCC1`?
VACV Venus inh: -16%; VACV mCherry inh: inactive

What do the screens show for `Cn1c(SCC(=O)N2CCOCC2)nnc1-c1ccccc1`?
VACV Venus inh: -18%; VACV mCherry inh: inactive

What do the screens show for `CCCCc1ccc(S(=O)(=O)Nc2ccc(C)c(NS(C)(=O)=O)c2)cc1`?
VACV Venus inh: -12%; VACV mCherry inh: inactive

Results for Cc1ccc2nc(SC(C)C(=O)Nc3cccc([N+](=O)[O-])c3)[nH]c2c1 (stereo not drawn) ?
VACV Venus inh: inconclusive; VACV mCherry inh: -22%

How did CCSC1=NC2(CCN(C(=O)NC3CCCCC3)CC2)N=C1c1ccc(C)cc1 do in these assays?
VACV Venus inh: -2%; VACV mCherry inh: 0%

Results for COc1cccc2cc(C(=O)NCCc3c(C)[nH]c4ccc(Br)cc34)c(=O)oc12 ?
VACV Venus inh: -2%; VACV mCherry inh: 6%

How did O=C(CCc1ccccc1)Nc1ccccc1OC(=O)c1ccccc1 do in these assays?
VACV Venus inh: -7%; VACV mCherry inh: inconclusive

How did Cc1ccc(Cn2cccc(C(=O)Nc3cc(C)on3)c2=O)cc1 do in these assays?
VACV Venus inh: -14%; VACV mCherry inh: -1%

What do the screens show for `Cc1[nH]n(-c2ccc(Cl)cc2)c(=O)c1/C=N/c1nnc(-c2ccccc2)s1`?
VACV Venus inh: -8%; VACV mCherry inh: inactive

What do the screens show for `COc1ccc(NC(=O)c2sccc2SCc2cccc(C(F)(F)F)c2)cc1`?
VACV Venus inh: -8%; VACV mCherry inh: -12%

Results for CC(C)N(CC(N)=O)C(=O)c1sc2cc(F)ccc2c1Cl ?
VACV Venus inh: -7%; VACV mCherry inh: -9%

What do the screens show for `COc1cccc(Nc2nnc(SCn3nnc4ccccc4c3=O)s2)c1`?
VACV Venus inh: -23%; VACV mCherry inh: inconclusive

What do the screens show for `COC(=O)c1ccc(NC(=O)CSc2nccn2CCc2ccccc2)cc1`?
VACV Venus inh: -20%; VACV mCherry inh: -3%

Results for Cc1ccc(S(=O)(=O)C2(C(=O)Nc3ccc(Br)cc3)CC2)cc1 ?
VACV Venus inh: -3%; VACV mCherry inh: -3%

How did Cc1ccc(C)c(NS(=O)(=O)c2ccc(-n3cccn3)cc2)c1 do in these assays?
VACV Venus inh: inconclusive; VACV mCherry inh: inconclusive

Results for C#CCN(Cc1ccc(OC)cc1)S(=O)(=O)C=C ?
VACV Venus inh: 28µM*; VACV mCherry inh: inconclusive

How did COc1cc(SC)ccc1C(=O)N1CCN(c2ccccc2F)CC1 do in these assays?
VACV Venus inh: -13%; VACV mCherry inh: -11%

What do the screens show for `Cn1c(=O)c2c(nc3sccn32)n(C)c1=O`?
VACV Venus inh: -1%; VACV mCherry inh: inactive

What do the screens show for `COC(=O)NC(=S)N1CCOCC1`?
VACV Venus inh: 3%; VACV mCherry inh: -12%

Results for CN(C(=O)c1cccc(NC(=O)Cc2cccc(NC(=O)C3CCN(C(=O)CCc4ccccc4)CC3)c2)c1)C1CC1 ?
VACV Venus inh: -9%; VACV mCherry inh: inactive

Results for COc1cc(Cl)cc(C2NC(=O)NC(C)=C2C(C)=O)c1OCC(=O)O (stereo not drawn) ?
VACV Venus inh: -8%; VACV mCherry inh: -1%

How did CCCc1cc(=O)c2c(O)cccc2o1 do in these assays?
VACV Venus inh: 3%; VACV mCherry inh: -6%

Results for Cc1ccc(Cl)cc1NC(=S)N(CCCN1CCOCC1)Cc1ccco1 ?
VACV Venus inh: -14%; VACV mCherry inh: -13%

How did O=C(c1ccccc1)c1nn(-c2ccccc2)c(=O)cc1-c1ccccc1 do in these assays?
VACV Venus inh: 0%; VACV mCherry inh: -3%

How did CCOc1ccc(CNC(=O)CCC(=O)N2CC(C)Sc3ccccc32)cc1 (stereo not drawn) do in these assays?
VACV Venus inh: 0%; VACV mCherry inh: -4%

What do the screens show for `Nc1nc2c(s1)CCc1c-2cnn1-c1ccccc1`?
VACV Venus inh: -22%&-13%; VACV mCherry inh: inconclusive

How did CCOc1ccc2ccccc2c1CNCCN1CCOCC1 do in these assays?
VACV Venus inh: -6%; VACV mCherry inh: -17%

Results for O=S(=O)(c1ccccc1)c1nc(-c2cccs2)oc1SCc1ccccc1Cl ?
VACV Venus inh: -14%; VACV mCherry inh: -16%

How did NS(=O)(=O)c1ccc(NC(=O)CSc2ccccc2)cc1 do in these assays?
VACV Venus inh: -7%; VACV mCherry inh: inactive

What do the screens show for `CCc1ccccc1N(C)C(=O)c1sc2nc3n(c(=O)c2c1C)CCCCC3`?
VACV Venus inh: -13%; VACV mCherry inh: -10%

How did Cc1cccc(OCC(=O)Nc2cc(C)ccc2O)c1 do in these assays?
VACV Venus inh: inconclusive

What do the screens show for `COCc1cc(C)nc2c1C(=O)NC(c1ccc(F)cc1)N2Cc1ccccc1` (stereo not drawn)?
VACV Venus inh: -19%; VACV mCherry inh: -10%

Structural class, the compounds so far containing an aryl thioether with sulfur outside any ring
What do the screens show for `COc1ccc(-c2noc(CSc3nc(N)cc(=O)[nH]3)n2)cc1OC`?
VACV Venus inh: -12%; VACV mCherry inh: inactive

How did CCOc1ccc(NC(=O)Cc2nnc(SCC(=O)N3CCOCC3)n2C)cc1 do in these assays?
VACV Venus inh: -18%; VACV mCherry inh: -16%

Results for O=C(CSc1ccccc1)Nc1nnc(/C=C/c2ccccc2)s1 ?
VACV Venus inh: -23%; VACV mCherry inh: 0%

Results for O=C(Nc1ccccc1F)c1nc(SCc2ccccc2F)ncc1Cl ?
VACV Venus inh: -9%; VACV mCherry inh: -1%

What do the screens show for `Cn1c(SCC(=O)N2CCOCC2)nnc1-c1ccccc1`?
VACV Venus inh: -18%; VACV mCherry inh: inactive

Results for Cc1ccc2nc(SC(C)C(=O)Nc3cccc([N+](=O)[O-])c3)[nH]c2c1 (stereo not drawn) ?
VACV Venus inh: inconclusive; VACV mCherry inh: -22%

What do the screens show for `COc1ccc(NC(=O)c2sccc2SCc2cccc(C(F)(F)F)c2)cc1`?
VACV Venus inh: -8%; VACV mCherry inh: -12%

What do the screens show for `COc1cccc(Nc2nnc(SCn3nnc4ccccc4c3=O)s2)c1`?
VACV Venus inh: -23%; VACV mCherry inh: inconclusive

What do the screens show for `COC(=O)c1ccc(NC(=O)CSc2nccn2CCc2ccccc2)cc1`?
VACV Venus inh: -20%; VACV mCherry inh: -3%

How did COc1cc(SC)ccc1C(=O)N1CCN(c2ccccc2F)CC1 do in these assays?
VACV Venus inh: -13%; VACV mCherry inh: -11%

Results for O=S(=O)(c1ccccc1)c1nc(-c2cccs2)oc1SCc1ccccc1Cl ?
VACV Venus inh: -14%; VACV mCherry inh: -16%

How did NS(=O)(=O)c1ccc(NC(=O)CSc2ccccc2)cc1 do in these assays?
VACV Venus inh: -7%; VACV mCherry inh: inactive
